NOMO-1 viab = NOMO-1 AML cell viability reduction, primary screen, STK33 inhibitor project, CellTiter-Glo luminescence; inhibition, % (no concentration beside the values); actives 7.5% (n = 37,000); NOMO-1 AML viability, 72 h; AID 2330, 2010;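 active = most replicates above 80%; inconclusive = exactly half above 80%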;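 note: wells of about 30 µL received 25 nL stock; 0% = median of vehicle wells and 100% = reference inhibitor level; the first replicate is given; inactives centre near 10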
Starred values were filed as active, the others as inactive; ? = inconclusive. A portion of the library, so the mix of outcomes need not match the whole.

SMILES | NOMO-1 viab
C[C@H](CO)N1C[C@H](C)[C@@H](CN(C)S(=O)(=O)c2ccc(Cl)cc2)Oc2c(NC(=O)c3nc4ccccc4s3)cccc2C1=O | 117*
C[C@@H]1CN([C@H](C)CO)C(=O)c2cccc(NC(=O)c3ccc(-c4nccs4)cc3)c2O[C@@H]1CN(C)S(=O)(=O)c1cn(C)cn1 | 4
Cc1ccc(S(=O)(=O)NCCSc2nncn2C)cc1 | 8
CC(C)NC(=O)N(C)C[C@@H]1Oc2c(NC(=O)c3ccncc3)cccc2C(=O)N([C@H](C)CO)C[C@H]1C | -19
COc1cc(C2NC(=S)NC(c3ccccc3)=C2C(=O)c2ccccc2)cc(I)c1OCCO (configuration not stated) | 26
O=C(Nc1nc(-c2ccc(Cl)c(Cl)c2)cs1)C1CC1 | 61
C[C@@H]1CN([C@@H](C)CO)C(=O)Cc2cc(NS(=O)(=O)c3cccs3)ccc2O[C@@H]1CN(C)C(=O)Nc1ccc(F)cc1 | -10
C[C@H]1CN([C@@H](C)CO)C(=O)c2cccc(NC(=O)CCCCCC(=O)Nc3ccccc3N)c2O[C@@H]1CN(C)CC1CC1 | 120*
C[C@H](CO)N1C[C@H](C)[C@H](CN(C)C(=O)Nc2ccccc2)Oc2ccc(NC(=O)Nc3ccc(C(F)(F)F)cc3)cc2CC1=O | 92*
O=C(NCc1cccnc1)C(=O)Nc1ccccc1F | 23
Cc1ccc(-c2nc3cc(Cl)cc(Cl)c3o2)cc1NC(=O)COc1ccccc1 | 23
C[C@@H]1CN([C@H](C)CO)C(=O)c2cccc(NS(C)(=O)=O)c2O[C@@H]1CN(C)Cc1ccc(C(=O)Nc2ccccc2N)cc1 | 77
C[C@@H]1CN([C@@H](C)CO)C(=O)Cc2cc(NC(=O)Cn3cnnn3)ccc2O[C@@H]1CN(C)C | 23
NS(=O)(=O)c1ccc(NC(=O)CN2CCN(Cc3ccccc3)CC2)cc1 | 6
CS(=O)(=O)N(CC(=O)Nc1cc(Cl)ccc1Cl)c1ccc(I)cc1 | 20
COc1ccc(NC(=O)c2oc3ccccc3c2NC(=O)Cc2coc3cc(C)cc(C)c23)cc1 | 23
C=C(C)C(=O)O[C@H]1[C@H]2C(=C)C(=O)O[C@@H]2C[C@@H](C)[C@@H]2O[C@@H]2C(=O)[C@](C)(O)[C@@H]1OC(C)=O | 122*
O=c1[nH]c2cc([N+](=O)[O-])c([N+](=O)[O-])cc2[nH]c1=O | -3
C[C@H]1CN([C@@H](C)CO)C(=O)c2cc(N(C)C)ccc2O[C@H]1CN(C)Cc1ccncc1 | -3
CN(C(=O)COc1cc(C(F)(F)F)n(C)n1)c1ccccc1 | -5
C[C@H](CO)N1C[C@H](C)[C@H](CN(C)Cc2ccc(C(F)(F)F)cc2)Oc2ccc(N(C)C)cc2CC1=O | 15
C=CCn1c(-c2cccs2)nc(-c2ccccc2)c1-c1ccccc1 | 121*
CCC(Sc1n[nH]c(=O)[nH]c1=O)C(=O)O (configuration not stated) | -12
Cc1ccc(S(=O)(=O)Nc2cccc3c2O[C@H](CN(C)Cc2ccccc2)[C@H](C)CN([C@H](C)CO)C3=O)cc1 | 19
COc1ccc([N+](=O)[O-])cc1NC(=O)c1cc(-c2ccccn2)nc2ccc(C)cc12 | 58

Among those listed so far, these have a CF3 group:
SMILES | NOMO-1 viab
C[C@H](CO)N1C[C@H](C)[C@H](CN(C)C(=O)Nc2ccccc2)Oc2ccc(NC(=O)Nc3ccc(C(F)(F)F)cc3)cc2CC1=O | 92*
CN(C(=O)COc1cc(C(F)(F)F)n(C)n1)c1ccccc1 | -5
C[C@H](CO)N1C[C@H](C)[C@H](CN(C)Cc2ccc(C(F)(F)F)cc2)Oc2ccc(N(C)C)cc2CC1=O | 15

More compounds
SMILES | NOMO-1 viab
CNc1nc(NC(C)C)nc(Oc2ccc(=O)[nH]n2)n1 | 3
CC(C)NC(=O)N(C)C[C@@H]1Oc2c(NS(=O)(=O)c3cccs3)cccc2C(=O)N([C@@H](C)CO)C[C@@H]1C | 25
CSc1ccccc1NC(=O)CN(Cc1ccccc1)S(C)(=O)=O | 0
C[C@H]1CN([C@@H](C)CO)C(=O)Cc2cc(NC(=O)NC3CCCCC3)ccc2O[C@H]1CN(C)S(=O)(=O)c1ccc(Cl)cc1 | 128*
CC(C)NC(=O)N(C)C[C@@H]1Oc2c(NC(=O)C3CCOCC3)cccc2C(=O)N([C@@H](C)CO)C[C@H]1C | -7
COc1c2c(cc3occ(-c4ccc5c(c4)OCO5)c(=O)c13)OC(C)(C)C=C2 | 24
CNC[C@@H]1Oc2ccc(NC(=O)c3ccncc3)cc2C(=O)N([C@@H](C)CO)C[C@@H]1C | 0
Cc1[nH]c2ccccc2c1Sc1ccccc1 | 141*
O=C(O)CNS(=O)(=O)c1ccc(C(=O)Nc2ccccc2)cc1 | 23
C[C@H]1CN([C@@H](C)CO)C(=O)Cc2cc(NC(=O)C3CC3)ccc2O[C@@H]1CN(C)CC1CC1 | 4
COc1cc([N+](=O)[O-])ccc1NC(=O)CSc1nc2c(c(C(F)(F)F)n1)CCCC2 | 41
C[C@H](CO)N1C[C@H](C)[C@H](CN(C)Cc2ccncc2)Oc2ccc(NC(=O)Nc3ccc(C(F)(F)F)cc3)cc2CC1=O | 126*
COC(=O)C1=C(C)NC(=S)NC1c1cc2c(cc1Br)OCO2 (configuration not stated) | 23
COc1cc2c(c(O)c1OC)C(=O)CC(c1ccc(O)cc1)O2 (configuration not stated) | 20
COc1ccc(NC(=O)Nc2ccc3c(c2)CC(=O)N([C@@H](C)CO)C[C@H](C)[C@@H](CN(C)Cc2ccc(C(=O)Nc4ccccc4N)cc2)O3)cc1 | 23
C[C@H](CO)N1C[C@H](C)[C@@H](CN(C)Cc2ccc(-c3ccccc3)cc2)Oc2ccc(NS(C)(=O)=O)cc2C1=O | 13
C/C=C1/CN[C@H]2Cc3c([nH]c4ccccc34)C(=O)C[C@H]1C2C(=O)OC (some centres not stated) | 26
COc1ccc(NC(=O)CN(c2ccccc2Br)S(C)(=O)=O)cc1OC | -20
C[C@@H]1CN([C@H](C)CO)C(=O)Cc2cc(NC(=O)CCC(F)(F)F)ccc2O[C@H]1CN(C)Cc1ccncc1 | 27
C[C@H](CO)N1C[C@H](C)[C@@H](CN(C)Cc2ccc(Cl)c(Cl)c2)Oc2c(NS(=O)(=O)c3ccccc3)cccc2C1=O | 33
COc1ccc(S(=O)(=O)N(C)C[C@H]2Oc3ccc(NC(=O)Nc4ccc(C(F)(F)F)cc4)cc3C(=O)N([C@H](C)CO)C[C@H]2C)cc1 | 88*
Cc1c(NC(=O)CSc2nc3c(c(C(F)(F)F)n2)CCc2ccccc2-3)c(=O)n(-c2ccccc2)n1C | -6
C[C@@H]1CN([C@H](C)CO)C(=O)c2cc(NC(=O)C3CC3)ccc2O[C@@H]1CN(C)Cc1ccc(-c2ccccc2)cc1 | 25
C[C@@H]1CN([C@H](C)CO)C(=O)c2cccc(NS(=O)(=O)c3ccc(F)cc3)c2O[C@H]1CN(C)C(=O)Nc1ccc2c(c1)OCO2 | -10
Cc1ccc(S(=O)(=O)N(C)C[C@@H]2Oc3c(NC(=O)c4cc(C)nn4C)cccc3C(=O)N([C@@H](C)CO)C[C@H]2C)cc1 | -1

An excerpt from above in order of formula weight, ascending:
SMILES | NOMO-1 viab
COc1c2c(cc3occ(-c4ccc5c(c4)OCO5)c(=O)c13)OC(C)(C)C=C2 | 24
COC(=O)C1=C(C)NC(=S)NC1c1cc2c(cc1Br)OCO2 (configuration not stated) | 23
Cc1c(NC(=O)CSc2nc3c(c(C(F)(F)F)n2)CCc2ccccc2-3)c(=O)n(-c2ccccc2)n1C | -6
COc1ccc(S(=O)(=O)N(C)C[C@H]2Oc3ccc(NC(=O)Nc4ccc(C(F)(F)F)cc4)cc3C(=O)N([C@H](C)CO)C[C@H]2C)cc1 | 88*

Additional records follow.
SMILES | NOMO-1 viab
C[C@H]1CN([C@@H](C)CO)C(=O)Cc2cc(NC(=O)CCCCCC(=O)Nc3ccccc3N)ccc2O[C@H]1CN(C)Cc1ccc(Oc2ccccc2)cc1 | 140*
C[C@@H]1CN([C@@H](C)CO)C(=O)c2cc(NC(=O)Nc3ccc(C(F)(F)F)cc3)ccc2O[C@@H]1CN(C)C(=O)NC1CCCCC1 | 107*
C[C@H]1CN([C@@H](C)CO)C(=O)Cc2cc(NC(=O)Nc3cccc4ccccc34)ccc2O[C@H]1CN(C)Cc1ccc2c(c1)OCO2 | -15
CCc1c(C)sc(NC(=O)c2cc(-c3cccnc3)nc3ccc(Cl)cc23)c1C(=O)N1CCOCC1 | 37
C[C@@H]1CCCCO[C@H](CN(C)S(C)(=O)=O)[C@@H](C)CN([C@H](C)CO)C(=O)c2cc(N(C)C)ccc2O1 | -7
NC(=O)CSc1nc2ccccc2n1Cc1ccccc1F | -6
COc1ccc(NC(=O)N(C)C[C@@H]2Oc3c(NC(=O)Nc4ccc(C(F)(F)F)cc4)cccc3C(=O)N([C@@H](C)CO)C[C@H]2C)cc1 | 93*
C[C@@H]1CN([C@@H](C)CO)C(=O)c2cc(NC(=O)C3CCCCC3)ccc2O[C@@H]1CN(C)Cc1ccncc1 | -13
CC(=O)Nc1ccc(NC(=O)c2ccnn2C)cc1 | 0
CCn1c(SCC(=O)Nc2cccc(C(F)(F)F)c2)nnc1-c1ccc(C)cc1 | 31
COc1ccc(CN(C)C[C@H]2Oc3ccc(NS(=O)(=O)c4ccc(C)cc4)cc3C(=O)N([C@H](C)CO)C[C@H]2C)cc1 | 5
COc1ccc(CN(C)C[C@H]2Oc3ccc(NS(=O)(=O)c4ccc(OC)cc4)cc3CC(=O)N([C@H](C)CO)C[C@H]2C)cc1 | 16
CSc1ccc(N=CN2C(=O)c3ccccc3C2=O)cc1 | 3
Cc1noc(C)c1S(=O)(=O)Nc1cccc2c1O[C@H](CN(C)S(=O)(=O)c1cn(C)cn1)[C@H](C)CN([C@@H](C)CO)C2=O | 13
O=C(NCc1ccccc1)C1Sc2nnc(-c3ccccc3)n2NC1c1ccc(F)cc1 (configuration not stated) | -6
COc1cc(/C=N/n2c(C)nc3c(ncn3-c3ccccc3)c2=O)cc(OC)c1OC | ?
C[C@H](CO)N1C[C@H](C)[C@H](CN(C)C(=O)Nc2ccc(C(F)(F)F)cc2)Oc2ccc(NC(=O)C3CC3)cc2CC1=O | 34
COc1ccc(S(=O)(=O)N(C)C[C@H]2Oc3ccc(NC(=O)Nc4c(C)noc4C)cc3C(=O)N([C@H](C)CO)C[C@@H]2C)cc1 | 18
Cc1cccc(N(C)C(=S)Oc2ccc3ccccc3c2)c1 | 12
CS(=O)(=O)N(CC(=O)Nc1ccc(Br)cc1F)c1ccc(F)c(Cl)c1 | 15
CN1C(=O)C(O)(CC(=O)c2ccccn2)c2cc(Br)ccc21 (configuration not stated) | 117*
O=C(Nc1sc2c(c1C(=O)NCc1cccnc1)CCCC2)c1ccc([N+](=O)[O-])cc1 | 9
Cc1ccc(C)c(NC(=O)CCCN2C(=O)c3ccccc3C2=O)c1 | 12
CCOC(=O)CSc1nc(-c2ccccc2)nc2sc3c(c12)CCCC3 | 10
C[C@@H]1CN([C@@H](C)CO)C(=O)c2cc(NC(=O)NC3CCCCC3)ccc2O[C@@H]1CN(C)S(=O)(=O)c1ccccc1 | -21

As a working copy, some entries already given:
SMILES | NOMO-1 viab
COc1ccc(CN(C)C[C@H]2Oc3ccc(NS(=O)(=O)c4ccc(C)cc4)cc3C(=O)N([C@H](C)CO)C[C@H]2C)cc1 | 5
COc1ccc(CN(C)C[C@H]2Oc3ccc(NS(=O)(=O)c4ccc(OC)cc4)cc3CC(=O)N([C@H](C)CO)C[C@H]2C)cc1 | 16

Next structures.
SMILES | NOMO-1 viab
CC(C)NC(=O)Nc1cccc2c1O[C@@H](CN(C)C(=O)NC1CCCCC1)[C@@H](C)CN([C@H](C)CO)C2=O | 0
Cc1noc(C)c1NC(=O)Nc1ccc2c(c1)C(=O)N([C@H](C)CO)C[C@H](C)[C@@H](CN(C)C(=O)Nc1ccccc1)O2 | 4
Cc1cc(C)n2nc(SCC(=O)Nc3cccc([N+](=O)[O-])c3)nc2n1 | -3
COc1ccc(CCNc2cc(C)c3cccc(OC)c3n2)cc1OC | 46
COc1ccc(CN(C)C[C@H]2Oc3c(NC(=O)Nc4ccccc4)cccc3C(=O)N([C@@H](C)CO)C[C@@H]2C)cc1 | 57
O=C(NCCCN1CCCC1=O)c1cc(-c2cccnc2)nc2ccc(Br)cc12 | 9
CC(C)NC(=O)Nc1ccc2c(c1)C(=O)N([C@H](C)CO)C[C@@H](C)[C@H](CN(C)CC1CCCCC1)O2 | 2
Cc1ccc(-n2c(C)nnc2SCC(=O)Nc2ccc(Cl)cc2Cl)cc1 | 36
Cc1c(NC(=O)CN(c2cccc(Cl)c2Cl)S(C)(=O)=O)cccc1[N+](=O)[O-] | 35
CCOc1cc(/C=C2\SCOC2=O)ccc1O | 59
C[C@@H]1CN([C@@H](C)CO)C(=O)c2cc(NS(C)(=O)=O)ccc2O[C@H]1CN(C)S(=O)(=O)c1ccccc1 | 4
COc1ccc(NC(=O)C2(c3ccc(NC(=O)c4ccc(OC(C)=O)cc4)cc3)CCCC2)cc1 | 6
COc1ccc(NC(=O)N(C)C[C@H]2Oc3ccc(NC(=O)Nc4ccc(C(F)(F)F)cc4)cc3C(=O)N([C@@H](C)CO)C[C@H]2C)cc1 | 54
C[C@H]1CN([C@@H](C)CO)C(=O)c2cc(NC(=O)CCCN(C)C)ccc2O[C@@H]1CN(C)Cc1ccc(C(F)(F)F)cc1 | -20
COc1ccc(C(=O)NCCNc2ccc([N+](=O)[O-])cc2C(F)(F)F)cc1 | 2
C[C@H](CO)N1C[C@H](C)[C@H](CN(C)C(=O)Nc2cccc3ccccc23)Oc2c(NC(=O)NC3CCCCC3)cccc2C1=O | 25
COC(=O)C1CCCN1S(=O)(=O)c1ccccc1 (configuration not stated) | 93*
C[C@@H]1CN([C@@H](C)CO)C(=O)Cc2cc(NC(=O)Nc3ccc(F)cc3)ccc2O[C@@H]1CN(C)C(=O)Nc1ccc(F)cc1 | -6

Assay outcomes: PubChem, Broad Institute
